Compound activity from PubChem BioAssay.
Anthrax LT inh: anthrax lethal toxin internalization inhibition. Cells, anthrax lethal toxin internalization, FRET ratio (460/530). Potency, µM (doses to about 40 µM), for the others: at the top dose activity change, negative = inhibition, most hits filed as inhibitors. 70,000 compounds, 0.67% hits; active = well fitted falling ratio curve with the 530 nm signal flat; inconclusive = other ratio curves, or a change in one channel alone; inactive = flat curves in the ratio and both channels; the % refers to the ratio; note: % is set by controls: 0 for no effect and ±100 for the full control effect; nearly all actives have a fitted effect of over 50% in size; tested in ME-180 cells; beta-lactamase reporter
Prx2 Sm inh: Schistosoma mansoni Prx2 inhibition. 65,000 compounds, 0.07% hits. S. mansoni Prx2 activity coupled to TGR/GSH (TGR is thioredoxin glutathione reductase), NADPH fluorescence loss, qHTS; some inactives read as strong as hits. AID 448. Potency, µM; active means full or partial inhibition curve with a strong effect at the top dose; inconclusive means weaker partial or single-point curve; inactive means no accepted curve; note: series up to 57 µM; many of its hits are not listed in these tables
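qHTS, coupled TGR/Prx2 format; 15 min compound preincubation at RT; reaction started with H2O2 (2.5 mM aliquot); kinetic NADPH fluorescence decrease, ex 365/em 450 nm.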
* hit, by the source's call; ? = inconclusive; nt = no result given; [ ] = another dose, or the depositor's remark. Potency is the fitted concentration of half-maximal effect. These rows are one share of the data; rates above refer to the full screens.

SMILES	Anthrax LT inh	Prx2 Sm inh
CN(C(=O)Cc1ccc(Cl)c(Cl)c1)[C@H](CN1CCCC1)c1cccc(N=C=S)c1	?	>57
COC(=O)C1CCN(C(=O)C(C)Oc2ccc(Cl)cc2Cl)CC1 (stereo not given)	-6.0%	>57
CCC(Sc1nnc(C)s1)C(=O)Nc1nccs1 (stereo not given)	2.1%	>57
Cc1ccnc(SCC(=O)N2CCN(c3cccc(Cl)c3)CC2)n1	-22.6%	>57
Cc1cc(-c2c(C)n([O-])c(C)c(C)[n+]2=O)ccc1F	5.5%	nt
COc1ccccc1CC1/C(=N/O)C2CCN1CC2 (stereo not given)	11.7%	>57
c1cc2nnnn2nc1N1CCCCC1	-4.4%	>57
COc1cc2c(cc1OC)C(/C(C#N)=N\O)=NC(C)(C)C2	-4.5%	>57
Cc1ccc(NC(=O)CS(=O)CC(=O)Nc2cccc(C)c2C)cc1F (stereo not given)	8.3%	>57
Brc1ccc(CSc2nnc(Cc3c[nH]c4ccccc34)o2)cc1	?	>57
Cc1ccc(-c2noc(CCC(=O)N(C)c3ccccc3C)n2)cc1	5.3%	>57
O=S(=O)(c1cccc(-c2nc3ccccc3s2)c1)N1CCCC1	-28.3%	>57
CCOC(=O)c1[nH]c(C)c(C(=O)N(CC)CC)c1C	-2.3%	>57
Cc1[nH]n(-c2ccccc2)c(=O)c1/C=N/c1ccccn1	13.6%	>57
CCc1nnc(SCc2ccc(CSc3nnc(CC)n3N)cc2)n1N	-11.0%	>57
COc1ccccc1C(=O)NCCn1cc(SCC(=O)Nc2cc(C)on2)c2ccccc21	-16.7%	>57
COc1cc(CN2CCC(C(=O)N3CCCC(C)C3)CC2)cc(Br)c1O (stereo not given)	-2.9%	>57
COc1ccc(C(=O)NCc2cn3ccccc3n2)cc1	15.7%	>57
CCc1nn(CC(=O)N2CCN(Cc3ccc4c(c3)OCO4)CC2)c(=O)c2cc3occc3n12	-19.7%	>57
CN(C)c1ccc(-c2cncnc2NCc2ccccc2)cc1	-11.2%	>57
N#Cc1c(-c2ccc(Cl)cc2Cl)nc2n(c1=O)CCS2	?	>57
CC(C)(C)C(=O)Cn1c(=N)n(Cc2ccccc2)c2ccccc21	?	>57
CCOC(=O)CC1=CC(C)(CC(=O)OCC)C(C#N)(C#N)C(N)=C1C#N (stereo not given)	-12.7%	>57
CCOC(=O)C1=C(Cn2ccc(C(F)(F)F)n2)NC(=O)NC1c1ccc2c(c1)OCO2 (stereo not given)	-7.5%	>57
CC[n+]1cc(-c2ccccc2)nc(N2CCOCC2)n1	19.4%	>57
c1cncc(C2=NCCC2)c1	-13.3%[3.58 µM]	>57
OC[C@@H]1O[C@@H](n2cnc3c(NCCc4ccccc4)ncnc32)[C@@H](O)[C@H]1O	?	>57
CN1CCN(Cc2nc(N)nc(Nc3ccc4c(c3)OCCO4)n2)CC1	8.1%	>57
CN1CCN(C(=O)c2ccc(CS(=O)(=O)c3c(Cl)cccc3Cl)o2)CC1	-1.2%	>57
COc1ccc(C2=NOC(C(=O)Nc3cc(Br)ccc3O)C2)cc1OC (stereo not given)	-10.2%	>57

In the list so far, these have an NH in an aromatic ring.
SMILES	Anthrax LT inh	Prx2 Sm inh
Brc1ccc(CSc2nnc(Cc3c[nH]c4ccccc34)o2)cc1	?	>57
CCOC(=O)c1[nH]c(C)c(C(=O)N(CC)CC)c1C	-2.3%	>57
Cc1[nH]n(-c2ccccc2)c(=O)c1/C=N/c1ccccn1	13.6%	>57

The listing continues.
SMILES	Anthrax LT inh	Prx2 Sm inh
O=C(Nc1ccon1)c1csc2ccccc12	nt	>57
Cc1ccc2nc3c(cc2c1)CC1(C(=O)N(C)C(=O)N(C)C1=O)C1CCCCN31 (stereo not given)	5.9%	>57
CCOC(=O)c1ccc(NCc2nc3ccccc3[nH]2)cc1	-16.4%	>57
Cn1c(CNC(=O)Nc2ccccc2Cl)nnc1SCc1ccccc1	9.8%	>57
Cc1cc(NC(=O)c2ccc(Br)c(S(=O)(=O)N3CCCC3)c2)no1	nt	>57
Cc1noc(NS(=O)(=O)c2ccc(N3CC(O)=C(c4ccccc4)C3=N)cc2)c1C	3.9%	>57
CC(C)C(C(=O)C=[N+]=[N-])N1C(=O)c2ccccc2C1=O (stereo not given)	-7.2%	>57
CCN(CC(F)(F)C(F)F)S(=O)(=O)c1ccc(NC(=O)OC)cc1	2.3%	>57
COc1ccc(C2CCCN2C(=O)c2cccs2)cc1 (stereo not given)	-0.8%	>57
O=C(Oc1cccc2cccnc12)c1cccc(-n2cnnn2)c1	-15.0%	>57
COc1ccc(OC)c(NC(=O)CCN2CCN(Cc3ccccc3)CC2)c1	2.4%	>57
O=C(O)C(CCCCN1C(=O)c2ccccc2C1=O)N1C(=O)c2ccccc2C1=O (stereo not given)	-5.4%	nt
OCCN1CCN(C(=S)c2ccc(Cl)c(Cl)c2)CC1	-3.6%	nt
Cc1ccc2[nH]c3c(NCc4ccco4)ncnc3c2c1	17.3%	>57
COC(CCN(C)C)(c1ccccc1)c1ccccc1	-10.3%	nt
c1coc(-c2ncc[nH]2)c1	-6.6%	>57
N#CC1=C(N)OC2=C(C(=O)CCC2)C1c1ccsc1 (stereo not given)	-14.8%	nt
CCOC(=O)c1c(NC(=O)CN2CCOCC2)sc2c1CCCC2=O	-3.6%	nt
Cc1c(NC(=O)NC(=O)c2ccc(F)cc2)c(=O)n(-c2ccccc2)n1C	7.9%	>57
CCOC(=O)Cc1csc(NC(=O)CSc2nnc(C)n2C)n1	-19.6%	>57
CCCNC(=O)C1CC(=O)N(c2ccc(OCC(=O)Nc3cc(C)cc(C)c3)cc2)C1 (stereo not given)	-6.6%	nt
CCN1CCN(C(=O)C2CCN(C(=O)c3cc4sccc4n3CC)CC2)CC1	2.5%	>57
Cn1cccc1C(=O)N1CCC2(CCCN(C(=O)Nc3ccccc3)C2)CC1	-14.1%	>57
Cc1ccc2nc3c(c(C(=O)O)c2c1)CCC3	3.0%	>57
C[C@]12CC[C@H]3[C@@H](CCC4=CC(=O)CC[C@@]43C)[C@@H]1CC[C@@H]2O	1.2%	nt
Cn1c(=O)cc(OCC(=O)N2CCCc3ccccc32)c2ccccc21	11.3%	>57
O=C(CC(NS(=O)(=O)c1ccc(Cl)cc1)c1ccco1)NCc1cccnc1 (stereo not given)	1.6%	>57
CC[C@@]1([N+](=O)[O-])C[C@H]2C=C[C@@H]1C2	-6.5%[8 µM]	>57
O=C(NC1CCCC1)c1cccnc1N1CCCCCC1	?	>57
CCOC(=O)c1oc2ccccc2c1CSc1nnc(-c2ccco2)o1	?	>57
C[C@H]1CC[C@@H]2[C@@H](C)C(=O)O[C@H]3O[C@@]4(C)CC[C@H]1[C@@]32OO4	-4.4%[3.58 µM]	>25.6
Cc1cc(O)c(C=Nc2cccc(Cl)c2)c(=O)o1	-5.6%	>57
COc1ccccc1Nc1nc(N)nc(CN2CCCCCC2)n1	2.9%	>57
COC(=O)[C@H](C)NC(=O)Nc1ccccc1F	-1.1%	>57
COC(=O)C1C2c3ccccc3OC1(C)N=c1s/c(=C/c3cnn(C)c3)c(=O)n12 (stereo not given)	1.7%	>57
CCCCCCCC(=O)Cl	-4.2%	nt
O=C(O)CSC12CC3CC(C1)CC(C(=O)O)(C3)C2	nt	>57
COC(=O)c1cnn(C(=O)c2cc(OC)ccc2Br)c1N	nt	>57
COc1cccc(C2CC(c3ccccc3C)n3nc(N)nc3N2)c1 (stereo not given)	-6.1%	>57
CCc1ccc2oc(=O)cc(CN3CCOCC3)c2c1	-15.9%	>57

One compound at a time, as listed above. Order of screens: Anthrax LT inh | Prx2 Sm inh
Shown for O=C(O)CSC12CC3CC(C1)CC(C(=O)O)(C3)C2 : nt | >57
Shown for COc1cccc(C2CC(c3ccccc3C)n3nc(N)nc3N2)c1 (stereo not given) : -6.1% | >57
Shown for C[C@H]1CC[C@@H]2[C@@H](C)C(=O)O[C@H]3O[C@@]4(C)CC[C@H]1[C@@]32OO4 : -4.4%[3.58 µM] | >25.6
Shown for COC(=O)c1cnn(C(=O)c2cc(OC)ccc2Br)c1N : nt | >57
Shown for Cc1cc(O)c(C=Nc2cccc(Cl)c2)c(=O)o1 : -5.6% | >57

Continuation.
SMILES	Anthrax LT inh	Prx2 Sm inh
c1ccc([P+](CC[P+](c2ccccc2)(c2ccccc2)c2ccccc2)(c2ccccc2)c2ccccc2)cc1	6.8%[8 µM]	>57
CCCc1nc2ccccc2c(C(=O)OC2CCOC2=O)c1CC (stereo not given)	?	>57
CCSc1nnc(-c2cccc(S(=O)(=O)N(C)C)c2)n1-c1cc(OC)ccc1OC	7.1%	>57
COC(=O)C1=C(C)N=c2s/c(=C/c3cccs3)c(=O)n2C1c1cccs1 (stereo not given)	-12.1%	>57
CC(OC(=O)c1nsc(Cl)c1Cl)C(=O)NCc1cccs1 (stereo not given)	-6.6%	>57
O=C(COC(=O)c1ccccc1)NCC1CCCO1 (stereo not given)	-18.6%	>57
O=C(CSc1cc(Cl)ccc1Cl)NCC1CCCO1 (stereo not given)	-0.9%	>57
Cc1cc(NC(=O)CSc2nnc(COc3ccccc3)n2Cc2ccco2)no1	9.2%	>57
COC(=O)C1=C(C)NC(=O)CC1c1ccc(F)c(Br)c1 (stereo not given)	0.2%	>57
c1coc(CNc2c3c(nc4ccccc24)CCC3)c1	?	nt
CC(=O)Nc1ccc(OC(=O)c2cccs2)cc1	-4.2%	nt
Cc1ccc(C)c(Cn2nnc3c(=O)[nH]c(C4CCCN(C(=O)C5CCCCC5)C4)nc32)c1 (stereo not given)	-5.9%	>57
O=C(CN1CCCC1)Nc1ccc(NC(=O)Nc2ccccc2Cl)cc1	?	>57
O=C1[C@@H]2[C@@H](C(=O)N1c1ccc(OCc3ccccc3)cc1)[C@@H]1c3ccccc3[C@@H]2[n+]2ccccc21	10.4%[8 µM]	>57
CCN(CC)CCCN1C(=O)C(=O)/C(=C(/O)c2c(C)nc3ccccn23)C1c1ccc(C)o1 (stereo not given)	?	>57
O=C(OCC(=O)N1CCc2ccccc21)c1ccccc1	0.0%	>57
CN(C)c1cccc(C(=O)n2cc(C(=O)c3cc(F)ccc3O)cn2)c1	10.2%	>57
O=C(O)C[n+]1ccccc1	-4.2%[8 µM]	>57
CCOC(=O)N1CCN(C(=O)C(NC(=O)C2CCC(C)CC2)C(C)C)CC1 (stereo not given)	13.1%	>57
CSc1ccccc1NC(=O)CN(c1cc(C)cc(C)c1)S(C)(=O)=O	-12.9%	>57
c1coc(-c2nc3c4c5c(sc4ncn3n2)CCCC5)c1	2.5%	>57
N#C/C=C\Oc1ccc(Cl)cc1N	?	>57
O=C(NC1CCS(=O)(=O)C1)c1cnccn1 (stereo not given)	4.2%	>57
O=C(CS(=O)(=O)Cc1ccccc1)N1CCN(C(=O)c2ccco2)CC1	?	>57
O=C(COc1cccc(C(F)(F)F)c1)Nc1ccc(S(=O)(=O)N2CCCC2)cc1	-28.1%	>57
CCN(CC)CCCN=Cc1c(O)n(Cc2ccc(F)cc2)c(=O)[nH]c1=O	?	>57
Cc1nnc(SCCc2ccccc2)[nH]c1=O	2.1%	>57
c1ccc(-n2c(-c3ccncc3)nnc2-c2cccs2)cc1	-6.8%	>57
CCOC(=O)c1oc2ccccc2c1NC(=O)c1ccc(S(=O)(=O)N(C)C)cc1	-0.2%	>57
CCCCc1cc(=O)oc2c(CN3CCCC3)c(O)c(Cl)cc12	?	nt
COc1cc(OC)cc(-c2nc3nc(C)c(CCC(=O)NCc4ccco4)c(C)n3n2)c1	7.1%	>57
CC1CCN(C(c2ccccc2)c2nnnn2C(C)(C)C)CC1 (stereo not given)	-1.8%	>57
Cc1ccc(C2CC(c3cccc(Cl)c3)n3nc(N)nc3N2)cc1 (stereo not given)	-10.2%	>57
CC1C(=O)C(C)C(c2ccc3c(c2)OCO3)NC1c1ccc2c(c1)OCO2 (stereo not given)	?	>57
CCOC(=O)C1CCCN(c2nc3ccccc3nc2C(C#N)C(=O)OCC)C1 (stereo not given)	-1.8%	>57
O=C1C2CCCN2C(c2ccc(F)cc2)N1c1ccc(Cl)cc1 (stereo not given)	-6.8%	>57
O=C(c1cnccn1)N1CCC2(CCCN(Cc3nccs3)C2)CC1	4.7%	>57
Cn1c(=O)n(Cc2ccc(F)cc2)c(=O)c2c1nc1n2CCCN1C1CCCCC1	-11.8%	>57
CC(C)C(C)(C)C(C)(C)C(C)(C)S	-2.3%	nt
O=C(N/N=C1/C[C@@H](O)[C@@H](O)[C@@H]2[C@@H]3C(=O)N(Cc4ccc5c(c4)OCO5)C(=O)[C@H]3CC[C@H]12)OCc1ccccc1	?	nt
CCOc1ccc(Cn2nnc(C(=O)Nc3cc(C)cc(C)c3)c2N)cc1	?	>57
CCOC(=O)CCc1c(C)nc2cc(-c3ccccc3OC)[nH]n2c1=O	-5.9%	>57
OCCCc1nc2ccccc2n1CCOc1ccccc1	2.8%	nt
COc1cccc(C(=O)OCCN2C(=O)c3ccccc3C2=O)c1OC	-10.5%	>57
COC(=O)c1c(NC(C)=O)sc2c1CCCC2	4.6%	>57
CCN(CC)Cc1nc2c(c(=O)[nH]1)C1(CCCCC1)Cc1ccccc1-2	-16.8%	>57
COc1ccc(N2CCN(CC(=O)Nc3nnc(-c4ccccc4)s3)CC2)cc1	-7.5%	>57
O=C(c1cccs1)N1CCN(C2CCCCC2)CC1	-11.8%	>57
COc1ccc(CCN2C(=O)c3cccnc3C2=O)cc1OC	3.8%	>57
O=C(CCC1COc2ccccc2O1)Nc1ccccn1 (stereo not given)	-5.0%	>57
COc1cc(Cl)c(C)cc1NC(=O)CSc1nnc(-c2cccnc2)n1Cc1ccco1	?	>57
